Source: PubChem (National Center for Advancing Translational Sciences (NCATS))
TRPML1 blocker = qHTS for Inhibitors of the Human Mucolipin Transient Receptor Potential 1 (TRPML1). Mucolipin-1 (Homo sapiens), Q9GZU1. hit rate 0.02% among 390,000. TRPML1-inducible cells, Ca2+ dye fluorescence, FDSS; hits give low values; inhibition of EC80 agonist-evoked calcium signal. activity change, negative = inhibition, % (concentration not given with the values). AID 624415, 2012; in the data active means activity change below about -50%; inconclusive means about -30% to -50%; inactive means above about -30%;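 further: stimulus is agonist 54-4 at its EC80 concentration; on the % scale 0 is the no-effect control and ±100 the full control effect; compound concentration not given in the record; the text of the record puts the active cut at -80%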
Target sequence (Q9GZU1 whole entry, looked up): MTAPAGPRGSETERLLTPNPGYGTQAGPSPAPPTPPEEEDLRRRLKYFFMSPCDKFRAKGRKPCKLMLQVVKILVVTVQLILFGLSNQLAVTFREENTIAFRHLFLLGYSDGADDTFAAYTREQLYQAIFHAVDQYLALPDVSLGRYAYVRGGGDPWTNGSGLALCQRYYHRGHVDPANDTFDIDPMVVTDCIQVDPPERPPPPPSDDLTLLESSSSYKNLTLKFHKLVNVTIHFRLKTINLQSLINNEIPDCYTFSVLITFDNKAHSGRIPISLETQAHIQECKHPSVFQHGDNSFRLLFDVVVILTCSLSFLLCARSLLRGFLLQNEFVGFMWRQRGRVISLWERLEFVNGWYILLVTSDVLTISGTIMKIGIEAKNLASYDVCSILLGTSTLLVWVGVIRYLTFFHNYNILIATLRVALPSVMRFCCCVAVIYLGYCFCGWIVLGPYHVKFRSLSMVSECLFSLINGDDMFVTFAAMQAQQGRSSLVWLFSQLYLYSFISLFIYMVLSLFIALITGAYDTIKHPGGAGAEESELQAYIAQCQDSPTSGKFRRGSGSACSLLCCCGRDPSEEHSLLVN
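Calcium fluorescence in TRPML1-DL cells induced overnight with Tet: a 110 s read after compound pin addition, then a 110 s antagonist read after challenge with 54-4 at 4 uM final (EC80).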
Menin MLL FP FL = qHTS Assay for Inhibitors Targeting the Menin-MLL Interaction in MLL Related Leukemias: Competition With Fluorescein Labeled MLL-derived Peptide; Fluorescence polarization, fluorescein-MLL peptide displacement from menin; FP activity change, % at 61.4 µM; 290,000 tested, under 10 active; inconclusive = falling polarisation curve, or a change in total fluorescence; inactive = total fluorescence flat and polarisation flat or rising; no compound was filed as active; the % refers to the polarisation; negative = inhibition;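 further: % of control where 0% means no effect; inhibitors lower the polarisation; unlabelled MLL peptide was the positive control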
TRPML1 agonist = qHTS for Agonists of the Human Mucolipin Transient Receptor Potential 1 (TRPML1). TRPML1-expressing cells, Ca2+ dye fluorescence, FDSS; host cell line not named in the record; reference of the full effect not given here. hit rate 0.12% among 410,000. activation, % (test concentration not listed). Mucolipin-1 (Homo sapiens), Q9GZU1; in the data active = activation above about 50%; inconclusive = about 30% to 50%; inactive = below about 30%; further: 0% is about no effect; the text of the record puts the active cut at 80%
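Calcium fluorescence on an FDSS kinetic reader gave the read-out. Tet-induced TRPML1-DL cells were plated overnight, dye-loaded (Ca8 with quencher, 45-90 min, room temperature, dark), then read 110 s after compound addition, and again 110 s after 4uM final 54-4 (EC80).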
TRPV1 PAM = HTS Assay for Compounds that Act as Potentiators of the Vanilloid Receptor 1. Transient receptor potential cation channel subfamily V member 1 (Homo sapiens), Q8NER1. hit rate 0.02% among 320,000. potentiation, % at 8.33 µM. TRPV1-expressing cells, Fluo-8 calcium influx, capsaicin EC20 potentiation; host cell line not named in the record; control for the full effect not named in the record; active means potentiation above 80%; inconclusive means 30% to 80%; inactive means below 30%; further: 0% is about no effect
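TRPV1-expressing cells were cultured overnight at 35.5C and loaded with Fluo-8 calcium dye for 40 to 90 min at room temperature. After a 10 s baseline, compound was added and calcium influx was read kinetically for 3 min (ex 480/em 520 nm).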
PINK1 modulator = A Quantitative High throughput Screen to Identify Chemical Modulators of PINK1 Expression | PINK1 immunofluorescence, high-content cytometry, 24 h | Potency, µM (highest dose often 76.6 µM), inactives show at the highest dose activation (PINK1 increase), usual class: activators | hit rate 0.2% among 410,000; active = well fitted activation curve with a large enough effect; inconclusive = small, poorly fitted or top-dose-only effect; inactive = flat fitted curve, though single readings scatter; cell line not stated here;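 further: potency means the concentration at half of the fitted maximal effect; % of control where 0% means no effect; nearly all actives have a fitted effect of over 65% in size; a mitochondrial uncoupler was the plate control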
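Measures PINK1 amount and localization on or inside mitochondria by immunofluorescence. Stable cells get compounds at 5 concentrations for 24 hours before fixation and staining; CCCP controls included.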
Sfp PPTase inh = qHTS Assay for Inhibitors of Bacillus subtilis Sfp phosphopantetheinyl transferase (PPTase) | hit rate 3.5% among 310,000 | AID 1490, 2009 | 4'-phosphopantetheinyl transferase ffp (Bacillus subtilis), Q9F4F7 | Potency, µM, without a hit: max response, negative = inhibition, usual class: inhibitors | Biochemical Sfp PPTase activity, qHTS; active means well fitted inhibition curve with a large enough effect; inconclusive means small, poorly fitted or top-dose-only effect, or another doubt; inactive means no such curve, though single readings can be large or run the other way;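 further: the enzyme is Sfp with the accession as filed and its product quenches rhodamine fluorescence; potency means the concentration at half of the fitted maximal effect; 0% = enzyme reaction without inhibitor and -100% = no enzyme wells; top concentration of the series not given in the record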
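Fluorescence-quenching assay with 15 nM Sfp, 5 uM rhodamine-CoA and 12.5 uM BHQ-2-labelled ybbR peptide in pH 7.6 Hepes/MgCl2 buffer. Enzyme was pre-incubated with compound for 15 min at room temperature. Rate was taken from the 30-min fluorescence change (525/598 nm).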
ClpP mod = qHTS Assay for Activators of ClpP. Potency, µM (doses to about 57.5 µM), without a hit: at the top dose activity change, negative = active. hit rate 1.9% among 340,000. purified B. subtilis ClpP, FRET peptide cleavage, 20 min. ATP-dependent Clp protease proteolytic subunit (Bacillus subtilis (strain 168)), P80244; active = well fitted falling curve with a large enough effect; inconclusive = small, poorly fitted or top-dose-only effect; inactive = no such curve, though single readings can be large or run the other way; further: potency means the concentration at half of the fitted maximal effect; the source files actives as falling curves though it sought activators and does not explain the sign; nearly all actives have a fitted effect of over 65% in size; many hits overshoot -100%
Target sequence (P80244 whole entry, looked up): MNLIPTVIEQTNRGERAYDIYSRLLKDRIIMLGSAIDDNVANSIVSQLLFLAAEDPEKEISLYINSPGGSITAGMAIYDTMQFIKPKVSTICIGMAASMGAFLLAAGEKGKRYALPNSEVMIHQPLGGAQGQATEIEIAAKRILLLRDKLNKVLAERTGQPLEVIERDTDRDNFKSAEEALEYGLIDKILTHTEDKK
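Purified B. subtilis ClpP, 10 microg/mL final in Tris/HCl pH8 with KCl, BSA, glycerol and Tween-20, cleaved an Abz/nitrotyrosine-quenched decapeptide. Fluorescence (ex 320, em 430) was read at 0 and 20 min at room temperature. Delta was normalized to 5.8 microM ADEP and DMSO/no-enzyme controls.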
* hit, by the source's call; ? = inconclusive; nt = not tested or not shown; [ ] = remark or other dose.

SMILES	TRPML1 blocker	Menin MLL FP FL	TRPML1 agonist	TRPV1 PAM	PINK1 modulator	Sfp PPTase inh	ClpP mod
COCCN(CCOC)C(=O)c1cc2sc3ccccc3c2s1	1	3.4	0.1	-18	-1.7%[38.3 µM]	3%	-11%
Cc1ccc(/C=C/C(=O)OCC(=O)c2ccc3c(c2)NC(=O)CO3)o1	6	nt	-1.0	nt	8.0%	nt	nt
CCCOc1ccc(OCCn2nc(C(=O)O)c3ccccc3c2=O)cc1	-14	1.5	2.5	12	-0.3%	-24%	nt
CCn1c(-c2cc(C3CC3)nc3ccccc23)n[nH]c1=S	53	2.7	-0.3	1	3.3%	-8%	-2.3%
CN(C)c1ncc2nc(-c3cccs3)c(=O)n(Cc3cccs3)c2n1	nt	?	nt	nt	?	26%	nt
Fc1ccc(NC(=S)N2N=CCC2c2ccccc2)cc1 (stereo not drawn)	-11	0.4	0.0	17	nt	6%	0.6%
Cc1ccc(/C=C/C(=O)Nc2ccc(N(C)C)cc2)o1	-4	11	-0.4	-18	9.0%	-26%	-0.2%
Cc1oc(-c2cccc(Br)c2)nc1CN1CCC(C(=O)NCc2ccccc2)CC1	24	nt	1.1	nt	2.0%	nt	-3.4%
Cc1cc(S(=O)(=O)N2CCCOC2CNC(=O)C(=O)NCCc2ccco2)ccc1F (stereo not drawn)	-7	nt	-0.3	2	1.7%	14%	-0.5%
COC(=O)CCCC(=O)N1CCOCCN(C(=O)CCCC(=O)OC)CCOCC1	?	0.1	0.2	-11	5.3%	-5%	-0.9%
COc1ccc(-c2nc(CS(=O)CC(=O)N3CCN(C)CC3)c(C)o2)cc1 (stereo not drawn)	-15	0.8	-0.3	-6	1.5%	5%	-3.2%
CC(C)CN(CC(C)C)C(=S)Nc1ccc(Cl)cc1	15	-3.4	8.1	3	7.9%	13%	nt
CCN1CCN(c2ccc(S(=O)(=O)N3CCCCC3)cc2NC(=O)c2ccccc2)CC1	12	nt	1.0	-12	-0.2%	nt	-10%
COc1ccc(-c2cc(C(=O)NCc3ccco3)no2)cc1OC	0	-3.9	0.7	5	15%	2%	5.5%
COCCNC(=O)C1(C)CCCN(C(=O)c2ccccc2C(F)(F)F)C1 (stereo not drawn)	nt	nt	-1.0	nt	1.3%	nt	0.5%
Cc1ccc(S(=O)(=O)NC(CC(=O)O)c2cccs2)cc1 (stereo not drawn)	-5	1.5	0.7	9	1.3%	27%	0.7%
COc1cccc(C(N)CC(=O)O)c1 (stereo not drawn)	nt	-4.0	nt	-8	nt	0%	nt
COc1ccccc1NC(=O)CC1C(=O)NCCN1C(=O)Nc1ccccc1 (stereo not drawn)	0	-0.4	-0.5	?	-4.1%[38.3 µM]	9%	1.4%
CC1=C(C#N)C(=O)NC(C)(C)C1	4	-24	-0.5	-8	4.3%	21%	-0.6%
CN(C(=O)c1cccc(S(=O)(=O)N2CCOCC2)c1)c1c(N)n(Cc2ccccc2)c(=O)[nH]c1=O	-14	nt	0.4	-5	-0.6%	nt	-3.7%
CCOC(=O)C1=C(C)OC(N)=C(C#N)C1c1cccc(C)c1 (stereo not drawn)	18	4.5	1.1	-18	0.4%	-3%	nt
COc1ccc(C(=O)C2CCCN(Cc3ccc(Sc4nncn4C)o3)C2)cc1F (stereo not drawn)	29	9.3	-0.5	3	-3.0%	7%	nt
CCOc1cc2c(cc1OCC)C(c1ccccc1OC)OC(=O)C2 (stereo not drawn)	7	3.1	0.1	-26	7.9%	-12%	-2.9%
CN(Cc1ccccc1)C(=O)c1cn(C)c2ccc(S(=O)(=O)N3CCCCC3)cc2c1=O	27	nt	-0.1	nt	2.0%	nt	-3.0%
S=c1[nH]c(-c2ccc(Cl)cc2)cs1	26	-0.2	-0.7	11	0.2%	11µM*	nt
CCc1cc(=O)oc2cc(C)cc(OCC(C)=O)c12	-11	-1.0	-0.2	-4	-0.1%	15%	1.3%
Oc1ccc(Cl)cc1C(C#Cc1ccccc1)N1CCOCC1 (stereo not drawn)	22	0.8	-1.0	-2	1.7%	0%	1.0%
Cc1ccc(O)c(C(=O)c2cnn(C(=O)Cc3csc(C)n3)c2)c1	-2	1.0	0.7	nt	0.6%	9%	130%
COc1ccc(OCC(=O)Nc2ccc3oc(=O)ccc3c2)cc1	-3	nt	-0.3	-8	0.4%	4%	-6.0%
Cn1c(=O)n(Cc2ccc(Br)cc2)c2ccccc21	-2	-6.3	1.5	1	0.0%	15%	nt
O=C(Nc1cccc(S(=O)(=O)NC2=NCCC2)c1)c1cc(-c2ccco2)nc2ccccc12	3	16	-0.9	9	7.5%	-27%	nt
Cc1nnc2c3ccccc3c(-c3cccc4ccccc34)nn12	12	4.8	1.7	4	14%[38.3 µM]	20%	-2.8%
COc1cc(OC)c(C(=O)N/N=C/c2ccoc2)cc1OC	-2	-0.4	0.3	-10	-0.7%	8%	-4.5%
COc1cc(OC)c(OC)cc1/C=C1/C(=O)N=C(N)N1C	14	?	-0.3	-16	7.8%	19%	0.8%
Cc1ccc(C)c(NC(=O)CSc2nnc(-c3ccncc3)n2N)c1	29	6.6	-0.6	7	1.2%	11%	-0.4%
CN(CC(=O)NCc1ccc2c(c1)OCO2)CC(=O)Nc1ccc(F)c(F)c1F	13	nt	-0.6	-4	-0.7%	nt	-0.2%
CCOC(=O)C(=O)NCC(c1ccco1)S(=O)(=O)c1cccs1 (stereo not drawn)	4	nt	0.1	15	-0.3%	nt	nt
CCSc1nc2ccccc2n1Cc1ccccc1F	25	1.5	1.4	-27	4.6%	-17%	-2.3%
CCCC[n+]1ccn(-c2nc3ccccc3nc2[N-]S(=O)(=O)c2ccc(Br)cc2)c1	-5	0.4	0.4	19	4.2%	-1%	nt
CCN(Cc1cc2ccccc2[nH]c1=O)C(=O)c1cccc([N+](=O)[O-])c1	13	1.8	0.2	7	-1.0%	13%	-7.3%
CCN(CC(=O)Nc1c(F)cccc1F)C(=O)Cc1csc(-c2ccccc2)n1	46	nt	1.5	2	-0.5%	nt	-23%
COc1cccc(C(C)(O)c2nc(-c3cncnc3)cs2)c1 (stereo not drawn)	5	nt	-0.1	nt	0.8%	nt	-0.1%
O=C1C2C3C=CC(C4CC34)C2C(=O)N1/N=C/c1ccc(-c2ccccc2[N+](=O)[O-])o1 (stereo not drawn)	34	-0.3	-0.2	0	6.6%	5%	-1.9%
O=C(Nc1cccc(C(F)(F)F)c1)NC1CCN(S(=O)(=O)c2ccc(F)cc2)CC1	-4	-1.1	0.2	-10	2.2%	15%	0.7%
COC(=O)c1sc2nc(C)nc(SCC(=O)Nc3sccc3C(N)=O)c2c1C	-12	nt	1.1	10	3.8%	nt	-19%
Cc1ccc2nc(N3CCN(c4ccccc4)CC3)c3nnnn3c2c1	2	nt	1.0	nt	0.9%	nt	-1.3%
COc1ccc(Cc2nnc(-c3ccc(F)cc3)o2)cc1OC	13	2.8	-0.8	-23	1.5%	7%	-11%
CCN1CCN(c2ccc(S(=O)(=O)N3CCCCC3)cc2NC(=O)CC(C)c2ccccc2)CC1 (stereo not drawn)	-7	nt	-0.3	-5	0.2%	nt	-3.6%
Cn1c(=O)c2c(SCC(=O)N3CCCc4ccccc43)nc(CC(C)(C)C)nc2n(C)c1=O	-13	4.6	-0.3	28	5.3%	15%	-0.1%
CCCOC(=O)c1ccc(NC(=O)Cc2cccs2)cc1	21	5.3	-0.7	-12	3.2%	10%	nt
COc1ccc(NC(=O)COC(=O)CNS(=O)(=O)c2ccccc2)cc1OC	-4	-0.5	0.0	-12	-1.0%	9%	nt
CC1(C)Cc2nc3[nH]c(=S)n(-c4ccccc4)c(=O)c3cc2CO1	-2	nt	-0.7	nt	12%[38.3 µM]	nt	5.0%
CCN(CC)S(=O)(=O)c1ccc(N2CCCC2)c(NS(=O)(=O)c2ccccc2)c1	-1	1.8	-0.2	1	-0.8%	-9%	0.5%
COc1cccc(-c2nnc(SCC(=O)Nc3cc(C)on3)n2C)c1	5	0.1	0.0	13	nt	19%	-0.1%
COCC(C)n1c(SCc2nc3ccccc3c(=O)[nH]2)nc2ccccc2c1=O (stereo not drawn)	-8	-0.7	-0.1	-12	1.6%	-7%	20µM*
CCOc1ccc(/C=C2\SC(=S)N(CC(=O)NCCCN3CCOCC3)C2=O)cc1	17	nt	-0.1	23	0.5%	-8%	nt
Cc1ccc(NC(=O)C2CCCN2S(=O)(=O)c2ccc3nc(-c4ccccc4)[nH]c3c2)cc1C (stereo not drawn)	-22	nt	5.4	nt	-1.6%	nt	-30%
Oc1oc(C=Nc2ccc(F)cc2F)c2ccccc12	-4	-1.8	1.7	6	-0.7%	-3%	-0.7%
CC(C)C(=O)NS(=O)(=O)c1ccc(N)cc1	-4	-0.5	2.7	-4	0.8%	6%	-1.8%
CCCCN(C(=O)COC(=O)CSc1cc(C)c2ccccc2n1)c1c(N)n(CCC)c(=O)[nH]c1=O	15	nt	0.1	17	1.6%	8%	-1.7%

Single records, as listed above. Order of screens: TRPML1 blocker | Menin MLL FP FL | TRPML1 agonist | TRPV1 PAM | PINK1 modulator | Sfp PPTase inh | ClpP mod
Entry for Cc1ccc2nc(N3CCN(c4ccccc4)CC3)c3nnnn3c2c1 → 2 | nt | 1.0 | nt | 0.9% | nt | -1.3%
Entry for CCCOC(=O)c1ccc(NC(=O)Cc2cccs2)cc1 → 21 | 5.3 | -0.7 | -12 | 3.2% | 10% | nt
